Compound activity deposited in PubChem BioAssay by several laboratories.
A1 inh – inhibitors of the anti-apoptotic protein A1, read as caspase activation; caspase activation, % (no concentration beside the values); MEF A1-2A-BIM cells, Caspase-Glo 3/7 luminescence, 3 h; percent of clofoctol response, vehicle zero; hit rate 0.066% among 330,000;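 active = over half of replicate activation scores above 10%, or exactly half above 10 with the replicate mean above 10; inconclusive = replicate mean below 10 yet half the replicates above 10; inactive = over half of replicates below 10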;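 also: wells of about 30 µL received 50 nL stock; many hits fall short of the cut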
Beta2AR agonist – agonists of human beta-2 adrenergic receptor inducing internalization. P07550. Am2.2-beta2AR cells, FAP receptor internalization, flow cytometry; reference of the scale not given here. response, % (concentration not given with the values). hit rate 0.43% among 340,000. AID 504454;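 active = response above a set limit, near 3 SD of response in nonfluorescent compounds, cut at about 42% in these data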;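 also: stock transfer was 100 nL into about 11 µL; a reference agonist was the positive control; negative values mostly stem from fluorescent compounds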
rRNA inh HTS – inhibitors of bacterial rRNA selective over humanized ribosomes; E. coli WT GFP vs humanized-ribosome RFP mutants, fluorescence, 24 h; hits give low values; DMSO median 0, no signal -100; AID 720706; hit rate 1.6% among 350,000; GFP signal change (wild-type ribosome), % (no concentration beside the values);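 active = significant combined selectivity score with lowered wild-type GFP, culture density cut under 30%, mutant RFP and density less affected; inactive = any of these conditions unmet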; also: one replicate is shown; some compounds called inactive have numbers as strong as hits
LANA-H2A inh – blocks KSHV LANA binding to histone H2A/H2B. Q9QR71. cell-free LANA-H2A/H2B peptide, fluorescence polarization. inhibition, % (no concentration beside the values). hit rate 0.6% among 320,000. AID 2629; in the data active = inhibition mostly above about 10%, no sharp cut-off; inactive = mostly below about 6.7%;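 also: stock transfer was 7.5 nL into about 10 µL; 0% = median of vehicle wells and 100% = median of positive control wells; one replicate is shown; the record names a cut of 25% in any replicate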
Target sequence (Q9QR71 whole entry, looked up): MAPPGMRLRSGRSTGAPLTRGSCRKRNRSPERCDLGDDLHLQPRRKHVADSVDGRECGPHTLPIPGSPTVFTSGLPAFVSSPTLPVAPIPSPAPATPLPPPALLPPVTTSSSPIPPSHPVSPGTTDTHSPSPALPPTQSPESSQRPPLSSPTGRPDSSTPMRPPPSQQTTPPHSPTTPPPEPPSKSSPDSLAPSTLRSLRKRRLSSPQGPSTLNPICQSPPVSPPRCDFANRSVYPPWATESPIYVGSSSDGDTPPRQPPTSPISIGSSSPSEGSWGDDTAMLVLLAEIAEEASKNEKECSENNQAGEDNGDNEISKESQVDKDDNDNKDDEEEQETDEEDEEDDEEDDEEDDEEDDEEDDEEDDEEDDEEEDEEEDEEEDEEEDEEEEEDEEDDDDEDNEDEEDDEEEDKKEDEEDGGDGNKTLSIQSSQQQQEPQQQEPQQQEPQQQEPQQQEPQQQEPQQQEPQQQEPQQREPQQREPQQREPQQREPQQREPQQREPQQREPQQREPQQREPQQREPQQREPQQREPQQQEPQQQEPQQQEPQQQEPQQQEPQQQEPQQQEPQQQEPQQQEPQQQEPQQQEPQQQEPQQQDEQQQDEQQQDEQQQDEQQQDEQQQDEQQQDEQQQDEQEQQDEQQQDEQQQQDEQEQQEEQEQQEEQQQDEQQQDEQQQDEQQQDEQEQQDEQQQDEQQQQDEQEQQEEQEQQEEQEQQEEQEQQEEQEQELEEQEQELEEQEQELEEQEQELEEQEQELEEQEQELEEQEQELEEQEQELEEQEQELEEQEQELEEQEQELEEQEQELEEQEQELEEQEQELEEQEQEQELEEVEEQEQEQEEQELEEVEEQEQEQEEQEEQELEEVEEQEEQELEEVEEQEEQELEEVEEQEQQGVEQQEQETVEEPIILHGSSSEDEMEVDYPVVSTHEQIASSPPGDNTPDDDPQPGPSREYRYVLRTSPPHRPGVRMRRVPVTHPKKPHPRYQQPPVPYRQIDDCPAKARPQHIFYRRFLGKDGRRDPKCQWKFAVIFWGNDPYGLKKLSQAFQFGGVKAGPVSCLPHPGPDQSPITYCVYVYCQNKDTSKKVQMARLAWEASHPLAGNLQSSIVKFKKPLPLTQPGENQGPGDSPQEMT
Beta cell apopt – beta cell apoptosis inhibition | hit rate 0.8% among 300,000 | protection from apoptosis, % (no concentration beside the values) | INS-1E cytokine-induced death, ATP luminescence, 48 h; percent of positive-control rescue, neutral wells zero;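 active = all replicates at 75% or more, or half of them and the mean; inconclusive = half reach 75% but not the mean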;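 also: 0% = cytokine-treated negative control wells and 100% = positive control rescue; higher means more ATP so stronger rescue from cytokine killing; wells of about 40 µL received 100 nL stock; the first replicate is given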
Calb FLC – C. albicans growth modulation with fluconazole; growth inhibition, % (no concentration beside the values); C. albicans CaCi-2 (fluconazole-resistant clinical isolate) + fluconazole, Alamar Blue growth, 48 h; hit rate 0.57% among 300,000;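 active = most replicates above 75%; inconclusive = exactly half above 75%; inactive = most below 75%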;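 also: all wells also contain fluconazole at 8 µg/ml as a sub-toxic cotreatment; 0% = median of DMSO wells and 100% = median of geldanamycin control wells; wells of about 8 µL received 7.5 nL stock; the first replicate is given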
ALR inh – human ALR oxidase inhibition via reduced H2O2. P55789. purified ALR, DTT oxidation, H2O2 HRP-luminol luminescence. inhibition, % (test concentration not listed). hit rate 3.8% among 290,000. AID 485317;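 active = mean and each replicate at 75% or more; inconclusive = only one of the two met; inactive = neither met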;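 also: stock transfer was 7.5 nL into about 7.5 µL; 0% = neutral wells and 100% = wells with inactivated enzyme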
T cruzi repl – T. cruzi replication inhibition. T. cruzi beta-gal in NIH3T3, luminescence, 90 h. inhibition, % (concentration not given with the values). hit rate 1.4% among 300,000. AID 1885;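 active = mean inhibition across valid replicates above about 55%, limit read from the data; inconclusive = mean below that limit but half or more replicates reach it; inactive = mean below it, under half of replicates reach it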;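 also: signal also drops with host cell toxicity which is not excluded here; 0% = plate median of DMSO wells and 100% = zero luminescence signal; higher percent means less beta-gal luminescence so fewer parasites; stock transfer was 50 nL into about 50 µL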
rRNA inh HTS OD600 – recorded beside rRNA inh HTS, whose call it bears; OD600 change, %; measured here: OD600 growth;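 optical density of the mix in the first replicate; 0 = DMSO median and -100 = no signal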
rRNA inh HTS RFP – also measured in rRNA inh HTS; calls as there; RFP signal change, %; measured here: RFP humanized mutant strains;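 first replicate; 0 = DMSO median and -100 = no signal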
An asterisk follows results filed as active. Only part of the results is shown. The share of hits here may be higher or lower than overall.

COc1ccc(CN2CCN(c3ncnc4scc(-c5ccc(F)cc5)c34)CC2)cc1 was read as A1 inh -1.0, Beta2AR agonist 8, rRNA inh HTS -63, LANA-H2A inh -3.7, Beta cell apopt 1, Calb FLC -11, ALR inh -4, T cruzi repl 12, rRNA inh HTS OD600 -73 and rRNA inh HTS RFP -20.
Screening Cc1ccc(SC[C@H](C)CN2CC[C@H](NC(=O)OCc3ccccc3)CCC2=O)cc1 returned A1 inh 0.3, Beta2AR agonist 9, rRNA inh HTS -6, LANA-H2A inh 0.0, Beta cell apopt -8, Calb FLC -3, ALR inh -4, T cruzi repl 13, rRNA inh HTS OD600 -11 and rRNA inh HTS RFP 31.
`Cc1nc2ccccc2c(=O)n1/N=C/c1ccccc1` gave A1 inh 0.1, Beta2AR agonist -12, LANA-H2A inh -4.2, Beta cell apopt -5, Calb FLC -5, ALR inh 23 and T cruzi repl -4.
C=CCn1c(SCC(=O)c2ccc(Br)cc2)nnc1C(CC(C)C)NC(=O)c1cccs1 (stereo not drawn) was read as A1 inh -0.1, Beta2AR agonist -4, LANA-H2A inh 0.8, Calb FLC 0, ALR inh 4 and T cruzi repl inconclusive.
`CCc1ccc2c(c1)c1nc(C)sc1n2CC(=O)OC` gave A1 inh 0.9, Beta2AR agonist 6, LANA-H2A inh 1.8, Beta cell apopt -10, Calb FLC 27, ALR inh 28 and T cruzi repl 1.
Cc1ccc(OCc2cnc(Cl)s2)c(C)c1 was read as A1 inh 2.0, Beta2AR agonist 5, rRNA inh HTS 3, LANA-H2A inh 2.3, Beta cell apopt -1, Calb FLC -4, ALR inh -2, T cruzi repl 1, rRNA inh HTS OD600 -5 and rRNA inh HTS RFP -0.4.
`N/C(=N\OC(=O)COc1ccc(Br)cc1)c1ccncc1` gave A1 inh -0.7, Beta2AR agonist 8, rRNA inh HTS 5, LANA-H2A inh 0.1, Beta cell apopt -2, Calb FLC inconclusive, ALR inh -2, T cruzi repl 5, rRNA inh HTS OD600 -5 and rRNA inh HTS RFP -1.8.
For COc1cc(CCC(O)CC(=O)CCc2ccccc2)ccc1O (stereo not drawn) the results were A1 inh 1.5, Beta2AR agonist 0, LANA-H2A inh -2.4, Beta cell apopt 1, Calb FLC -4, ALR inh inconclusive and T cruzi repl -27.
Screening O=C(COc1ccc(Cl)cc1Cl)Nc1ccc(Cl)cn1 returned A1 inh -5.6, Beta2AR agonist -1, rRNA inh HTS -5, LANA-H2A inh 3.6, Beta cell apopt -2, Calb FLC -20, ALR inh -19, T cruzi repl 18, rRNA inh HTS OD600 1 and rRNA inh HTS RFP 2.3.
`COC(=O)c1cccc(NC(=O)c2cnccn2)c1` gave A1 inh -0.2, Beta2AR agonist 5, rRNA inh HTS 17, LANA-H2A inh 5.4, Beta cell apopt -16, Calb FLC 0, ALR inh 0, T cruzi repl -1, rRNA inh HTS OD600 7 and rRNA inh HTS RFP 6.0.
COc1ccc(N2CCN(CC(=O)c3c(C)n(C)c4ccc(OC)cc34)CC2)cc1 was read as A1 inh 0.1, Beta2AR agonist 5, rRNA inh HTS -6, LANA-H2A inh -3.8, Beta cell apopt -2, Calb FLC 0, ALR inh 32, T cruzi repl 27, rRNA inh HTS OD600 -13 and rRNA inh HTS RFP 0.2.
`Cc1ccc(CNc2ccc(N3C(=O)CC(C)C3=O)cc2[N+](=O)[O-])cc1` (stereo not drawn) gave A1 inh 0.1, Beta2AR agonist 6, LANA-H2A inh -1.4, Beta cell apopt 1, Calb FLC -8, ALR inh 6 and T cruzi repl -24.

4 records drawn at random from those above, as already listed:
C=CCn1c(SCC(=O)c2ccc(Br)cc2)nnc1C(CC(C)C)NC(=O)c1cccs1 (stereo not drawn) was read as A1 inh -0.1, Beta2AR agonist -4, LANA-H2A inh 0.8, Calb FLC 0, ALR inh 4 and T cruzi repl inconclusive.
`Cc1ccc(CNc2ccc(N3C(=O)CC(C)C3=O)cc2[N+](=O)[O-])cc1` (stereo not drawn) gave A1 inh 0.1, Beta2AR agonist 6, LANA-H2A inh -1.4, Beta cell apopt 1, Calb FLC -8, ALR inh 6 and T cruzi repl -24.
Screening Cc1ccc(SC[C@H](C)CN2CC[C@H](NC(=O)OCc3ccccc3)CCC2=O)cc1 returned A1 inh 0.3, Beta2AR agonist 9, rRNA inh HTS -6, LANA-H2A inh 0.0, Beta cell apopt -8, Calb FLC -3, ALR inh -4, T cruzi repl 13, rRNA inh HTS OD600 -11 and rRNA inh HTS RFP 31.
Screening O=C(COc1ccc(Cl)cc1Cl)Nc1ccc(Cl)cn1 returned A1 inh -5.6, Beta2AR agonist -1, rRNA inh HTS -5, LANA-H2A inh 3.6, Beta cell apopt -2, Calb FLC -20, ALR inh -19, T cruzi repl 18, rRNA inh HTS OD600 1 and rRNA inh HTS RFP 2.3.

(more compounds)
CCOC(=O)c1nc(Nc2ccc(C(=O)O)cc2)c2ccccc2n1 was read as A1 inh 0.9, Beta2AR agonist 2, LANA-H2A inh 8.8, Beta cell apopt -5, Calb FLC 6 and T cruzi repl -8.
`Cc1nn(C)c(C)c1NC(=O)c1ccc(S(=O)(=O)N(C)C)cc1` gave A1 inh 1.1, Beta2AR agonist -5, LANA-H2A inh -3.5, Beta cell apopt 4, Calb FLC 0, ALR inh -1 and T cruzi repl -25.
O=C(CN1C(=O)NC2(CCCC2)C1=O)OCCOc1ccccc1Cl was read as A1 inh -0.4, Beta2AR agonist 9, rRNA inh HTS 9, LANA-H2A inh -0.5, Beta cell apopt -5, Calb FLC 7, T cruzi repl -2, rRNA inh HTS OD600 -1 and rRNA inh HTS RFP -0.8.
`O=C(Nc1ccc(F)cc1)NC1(C(=O)NCc2cccs2)CCCCC1` gave A1 inh 1.0, Beta2AR agonist -11, rRNA inh HTS 8, LANA-H2A inh 4.0, Beta cell apopt -10, Calb FLC 5, ALR inh 1, T cruzi repl -9, rRNA inh HTS OD600 3 and rRNA inh HTS RFP -1.4.
For N=C1C(c2ccccc2)=C(O)CN1c1cccc(S(=O)(=O)Nc2cccc(C(F)(F)F)c2)c1 the results were A1 inh 0.4, Beta2AR agonist -253, LANA-H2A inh -4.0, Beta cell apopt 4, Calb FLC 11, ALR inh 3 and T cruzi repl 3.
O=C(NC1=NCCS1)c1ccc(-c2ccc(Cl)cc2)o1 was read as A1 inh 0.0, Beta2AR agonist 0, rRNA inh HTS -11, LANA-H2A inh 1.9, Beta cell apopt 5, Calb FLC 0, T cruzi repl -9, rRNA inh HTS OD600 5 and rRNA inh HTS RFP 8.8.
`CCCN1C(=O)/C(=C/c2ccccc2OCc2ccc(C(=O)O)cc2)NC1=S` gave A1 inh 0.7, Beta2AR agonist 0, rRNA inh HTS -40, LANA-H2A inh 1.8, Beta cell apopt 0, Calb FLC 3, ALR inh 79*, T cruzi repl -3, rRNA inh HTS OD600 -60 and rRNA inh HTS RFP -7.4.
For O=C1N=C(N2CCCCC2)S/C1=C\c1cn[nH]c1-c1ccccc1 the results were A1 inh -0.8, Beta2AR agonist -4, LANA-H2A inh 2.4, Beta cell apopt 15, Calb FLC 6, ALR inh 1 and T cruzi repl 7.
For O=C(Nc1ccsc1C(=O)NC1CCCCC1)c1ccccc1 the results were Beta2AR agonist -5, LANA-H2A inh -0.6, Beta cell apopt 2, Calb FLC 5, ALR inh -4 and T cruzi repl 32.
Screening CCN1CCN(c2ncnc3c2cnn3-c2ccc(Cl)cc2)CC1 returned A1 inh -1.6, Beta2AR agonist -2, rRNA inh HTS 1, LANA-H2A inh -2.3, Beta cell apopt 0, Calb FLC 7, ALR inh -9, T cruzi repl 2, rRNA inh HTS OD600 5 and rRNA inh HTS RFP -2.7.
Screening C/C(=N\Nc1cc(Cl)nc(C)n1)c1ccc(C)cc1 returned A1 inh -0.8, Beta2AR agonist -3, LANA-H2A inh 5.3, Beta cell apopt -4, Calb FLC 3, ALR inh -2 and T cruzi repl -18.
Screening Cc1ccc(C(=O)CC(=O)COc2ccc(Cl)cc2)cc1 returned A1 inh -0.1, Beta2AR agonist 8, rRNA inh HTS -43, LANA-H2A inh -0.1, Beta cell apopt -2, Calb FLC 114*, ALR inh 2, T cruzi repl 4, rRNA inh HTS OD600 -51 and rRNA inh HTS RFP -13.
Screening COc1cc(CC(=O)OCC(=O)Nc2ccc(Cl)c(S(=O)(=O)N(C)C)c2)cc(OC)c1OC returned A1 inh 0.0, Beta2AR agonist -14, rRNA inh HTS -12, LANA-H2A inh 2.5, Beta cell apopt -7, Calb FLC 15, ALR inh -2, T cruzi repl 1, rRNA inh HTS OD600 -13 and rRNA inh HTS RFP 1.7.
COc1ccc(-n2c(=O)c(CCC(=O)N(C)Cc3cccs3)nc3ccccc32)cc1 was read as A1 inh 0.7, Beta2AR agonist 0, rRNA inh HTS -10, LANA-H2A inh 0.3, Beta cell apopt -1, Calb FLC -4, ALR inh 3, T cruzi repl 16, rRNA inh HTS OD600 -5 and rRNA inh HTS RFP 2.0.
COCC(C)n1c(SCC(=O)N2CCOCC2)nc2ccccc2c1=O (stereo not drawn) was read as A1 inh 0.2, Beta2AR agonist 13, rRNA inh HTS 6, LANA-H2A inh -1.7, Beta cell apopt -1, ALR inh -1, rRNA inh HTS OD600 3 and rRNA inh HTS RFP -3.3.
For O=[N+]([O-])c1ccc(N=Cc2sc3ccccc3c2O)cc1 the results were A1 inh 1.1, Beta2AR agonist 20, rRNA inh HTS -2, LANA-H2A inh 11, Beta cell apopt -1, Calb FLC -7, ALR inh -4, T cruzi repl -29, rRNA inh HTS OD600 2 and rRNA inh HTS RFP 21.
`COc1ccc(C=Nc2cccnc2N)cc1` gave A1 inh -1.9, Beta2AR agonist 16, LANA-H2A inh 2.4, Calb FLC 4, ALR inh 1 and T cruzi repl -28.
O=C(COC(=O)CNC(=O)C1CCCCC1)Nc1cccc(F)c1 was read as A1 inh 0.3, Beta2AR agonist 1, rRNA inh HTS 4, LANA-H2A inh -5.7, Beta cell apopt -2, ALR inh 0, rRNA inh HTS OD600 10 and rRNA inh HTS RFP 3.1.
`O=C(NC(=S)NCCCN1CCOCC1)c1ccco1` gave A1 inh 0.5, Beta2AR agonist 3, rRNA inh HTS 15, LANA-H2A inh -2.4, Beta cell apopt -5, Calb FLC 1, ALR inh -2, T cruzi repl 1, rRNA inh HTS OD600 12 and rRNA inh HTS RFP 2.2.
O=C(Nc1nc(-c2ccccc2)cs1)c1ccccc1F was read as A1 inh -0.4, Beta2AR agonist -9, rRNA inh HTS -20*, LANA-H2A inh 0.0, Beta cell apopt 8, Calb FLC -4, ALR inh -18, T cruzi repl -5, rRNA inh HTS OD600 9.9* and rRNA inh HTS RFP -0.8*.
For c1ccc(OCCn2c(-c3ccco3)nc3ccccc32)cc1 the results were A1 inh 0.9, Beta2AR agonist 1, rRNA inh HTS -46*, LANA-H2A inh -1.5, Beta cell apopt -3, Calb FLC -3, ALR inh 6, T cruzi repl 7, rRNA inh HTS OD600 -34* and rRNA inh HTS RFP -2.5*.
